# Assay outcomes (PubChem)
# GIV Gai3 FP: inhibitors of GIV GBA-motif binding to rat Galpha-i3 | P08753 | Galpha-i3/FITC-GIV peptide fluorescence polarization, 90 min; stronger effect = lower value; scaled: aluminum fluoride 0%, vehicle 100% | percent of control (FP), % (no concentration beside the values) | hit rate 0.42% among 210,000 | AID 1224905;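 active means replicate mean at 85% of control or lower, very high polarization wells dropped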;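 further: wells of about 15 µL received 100 nL stock; the first replicate is given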
# Target sequence (P08753 whole entry, looked up): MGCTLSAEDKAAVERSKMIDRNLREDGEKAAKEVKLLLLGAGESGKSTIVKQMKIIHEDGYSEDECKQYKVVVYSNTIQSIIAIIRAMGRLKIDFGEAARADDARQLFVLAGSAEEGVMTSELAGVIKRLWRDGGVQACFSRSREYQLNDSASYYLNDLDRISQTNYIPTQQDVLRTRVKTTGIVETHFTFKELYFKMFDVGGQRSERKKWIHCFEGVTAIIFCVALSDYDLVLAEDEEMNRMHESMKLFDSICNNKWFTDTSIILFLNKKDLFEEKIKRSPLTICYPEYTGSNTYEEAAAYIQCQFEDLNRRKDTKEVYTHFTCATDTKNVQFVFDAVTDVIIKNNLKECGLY
# HCMV NEC inh: inhibitors of HCMV UL50-UL53 nuclear egress complex interaction; HTRF UL50-UL53 interaction, normalized percent inhibition; inhibition, % (test concentration not listed); hit rate 0.15% among 190,000; AID 1918969;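 active means both replicates at 50% or more, plus weaker picks with an unusually low signal ratio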;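 further: stock transfer was 100 nL into about 20 µL; 0% = negative control wells and 100% = wells with untagged competitor protein; inactives centre near -12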
# Sa growth inh: S. aureus growth inhibition | S. aureus RN4220 growth, OD600, 20 h, 42 °C; stronger effect = lower value | relative growth, % (test concentration not listed) | hit rate 0.53% among 170,000 | AID 720641;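 active means growth at 42 °C up to 50% and 20 or more points under that at 30 °C, or under 10% at both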;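 further: 300 nL library stock went into each well; scaled to the means of positive and negative controls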
# Sa growth inh second temp: recorded beside Sa growth inh, whose call it bears; relative growth, %; measured here: growth at 30 °C;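 optical density after 20 h as mean of two plates; 100% = untreated growth and lower means inhibition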
# Starred values were filed as active, the others as inactive; · = no result given; & = joins results of further samples.
SMILES,GIV Gai3 FP,HCMV NEC inh,Sa growth inh,Sa growth inh second temp
Cc1ccc(Cl)cc1NCN1C(=O)/C(=C/c2ccc(Br)cc2)NC1=S,·,-126,96,82
Cc1csc(=NCC(=O)NCc2ccccc2)n1CC(=O)NCc1ccccc1,·,-9,112,86
COc1ccccc1C(=O)N1CCNCC1,·,8,102,104
CCc1cc(=O)oc2cc3occ(C(C)(C)C)c3cc12,101,·,89,93
COc1cccc(CNC(=O)CN2C(=O)CSc3c2c(C)nn3-c2ccccc2)c1,105,·,114,86
Cc1ccn2c(-c3nnco3)c(C)nc2c1,104,-40,110,90
CC1(C)C2CCC1(CS(=O)(=O)Nc1ccc(Cl)cc1)C(=O)C2 (configuration not stated),108,0,77,93
Cc1onc(-c2ccncc2)c1C(=O)NCCCN1CCN(c2ccccc2F)CC1,101,2,·,·
COc1ccc(C2C3=C(CC(C)(C)CC3=O)Nc3ccccc3N2C(=O)Cc2ccccc2)cc1OC (configuration not stated),106,-9,·,·
CCSc1nn(CC(=O)Nc2cccc(CC)c2)c(N)c1S(=O)(=O)c1ccccc1,100&99,-27,115,92
CC(=O)N1CCc2cc(S(=O)(=O)NCCC(=O)N3CCc4ccccc43)ccc21,100,·,84,86
O=C(COC(=O)c1ccc(Cl)nc1)NCc1ccccc1Cl,·,-9,106,92
CCn1cc2nc(SCC(=O)NC3CCCCC3)n(Cc3ccc(OC)cc3)c(=O)c2n1,103,-34,95,87
CN(C(=O)COc1ccccc1)C1CCS(=O)(=O)C1 (configuration not stated),104,-7,101,83
CCCN(CCC)c1sc(S(C)(=O)=O)nc1S(=O)(=O)c1ccc(C)cc1,108,4,108,82
Cc1oc2ncn(CC(C)C)c(=O)c2c1C(=O)NCc1cccc(Cl)c1,108,·,90,89
CCOC(=O)c1[nH]c2ccc(OC)cc2c1N=C(C)N(C)C,98,·,114,90
COc1cccc(-c2nc3c(c(SCC(=O)Nc4cc(C)ccc4C)n2)Cc2c(CO)cnc(C)c2O3)c1,104,·,95,103
NS(=O)(=O)c1ccc(NC(=O)CN2CCN(c3ccc(F)cc3)CC2)cc1,104,·,91,88
CC(C)(C)NC(=O)c1cnn(-c2ccccc2)c1C1CCN(C(=O)OC(C)(C)C)CC1,111,·,99,91

# Individual results from the list:
# HCMV NEC inh, COc1ccc(C2C3=C(CC(C)(C)CC3=O)Nc3ccccc3N2C(=O)Cc2ccccc2)cc1OC (configuration not stated) : -9
# Sa growth inh, CC(C)(C)NC(=O)c1cnn(-c2ccccc2)c1C1CCN(C(=O)OC(C)(C)C)CC1 : 99
# HCMV NEC inh, CCCN(CCC)c1sc(S(C)(=O)=O)nc1S(=O)(=O)c1ccc(C)cc1 : 4

# The results go on:
SMILES,GIV Gai3 FP,HCMV NEC inh,Sa growth inh,Sa growth inh second temp
CCN(c1ccccc1)c1nnc(NC(=O)Nc2cccc(Cl)c2C)s1,101,-15,119,91
CC1CCN(Cc2ccc(NC(=O)Nc3cccs3)cc2)CC1,109,·,85,84
CN(C)c1ccc(/C=C(\NC(=O)c2ccccc2)C(=O)NCc2ccco2)cc1,·,-24,115,90
O=C(Cn1cc(Cl)cn1)N1CCCC1c1ccco1 (configuration not stated),111,-11,·,·
Cc1ccc2c(=O)c(C(=O)c3cccc(Cl)c3)cn(CC(=O)Nc3ccc4c(c3)OCCO4)c2n1,114,·,90,70
CC1=CCC2(CO)COC(c3ccccc3O)C1C2 (configuration not stated),105,-2,108,92
C=CCNC(=O)c1ccccc1OCc1ccccc1,94,-33,101,96
CN1CCN(C(=O)C2=C(N)C(C(=O)Nc3ccccc3Br)SC2=NCc2ccccc2)CC1 (configuration not stated),·,-38,98,86
Cc1nn(CCCC(=O)NC2CCCc3ccccc32)c(=O)c2cc3sccc3n12 (configuration not stated),111,-3,104,98
CCc1nnc(NC(=O)c2cc(-c3ccc(C)cc3)on2)s1,102,9,·,·
COc1ccccc1CNC(=O)Cc1c(C)c2c(cc(C)c3c(C)c(C)oc32)oc1=O,101,-42,100,88
CC(=O)NC1=NC(=O)/C(=C\c2ccc(Cl)cc2)S1,·,-20,86,83
Cn1c(=O)n(C)c2cc(CN3C(=O)c4ccccc4C3=O)ccc21,·,-14,98,94
Cc1nc(SCC(N)=O)c2c(=O)n(C)c(=O)n(C)c2n1,106,4,89,82
COc1cc(OC)c(NC(=O)Cn2c3ccccc3c(=O)c3ccccc32)cc1Cl,102,-26,·,·
O=C(NC12CC3CC(CC(C3)C1)C2)C1CCCN1S(=O)(=O)c1ccccc1 (configuration not stated),·,-5,102,84
CC(=O)O/N=C(/N)c1cnn2c(C(F)(F)F)cc(C(F)(F)F)nc12,110,-70,97,88
O=c1[nH]c2ccccc2n1CN1CCc2ccccc2C1,·,-24,100,89
COC(=O)c1cnn(C(=O)c2ccccc2Br)c1N,100,·,127,82
CCCN1CCN(c2ccc(S(C)(=O)=O)cc2S(C)(=O)=O)CC1,·,2,100,100
CCN1C(=O)/C(=C2\SC(=S)N(NC(=O)c3ccccc3)C2=O)c2ccccc21,·,2,103,87
O=S(=O)(Nc1n[nH]c2cccc(Cl)c12)c1ccc(Cl)cc1,109,-9,104,101
CCOC(=O)c1cc(C#N)c(SCc2ccc(C#N)cc2)nc1C,·,-6,88,90
Cc1cc(=O)[nH]c(SCC(=O)Nc2ccc(N3CCOCC3)c(Cl)c2)n1,103,-15,105,94
CC(NC(=O)CSc1nc2c(c(=O)n1C)C1=C(CCCC1)C2)c1ccccc1 (configuration not stated),·,-15,106,98
Nc1[nH]nc(Nc2ccccc2)c1S(=O)(=O)c1ccccc1,105,-32,91,57
Cc1ccc(SCC(=O)Nc2ccc3oc(-c4ccc(F)cc4)nc3c2)cc1,99,-27,96,81
N#CCCSc1ccc(F)cc1,·,-11,84,85
CCC(Sc1nc2ccncc2[nH]1)C(=O)Nc1cc(Cl)ccc1C (configuration not stated),102,5,101,75
CCOC(=O)c1ccc(OC(=O)c2cn(-c3cccc(OC)c3)c(=O)c3ccccc23)cc1,108,·,101,91
CC(C)CNc1cc(N2CCC(C)CC2)c2noc3c2c1C(=O)c1ccccc1-3,198,-53,·,·
Cc1ccccc1Nc1nnc(-c2ccc(C)c(S(=O)(=O)N3CCCCC3)c2)c2ccccc12,113,-20,105,97
Cc1nc(NS(=O)(=O)c2ccccc2)sc1NC(=O)OCCOc1nc(N(C)C)nc(N(C)C)n1,103,-12,93,78
CCOC(=O)COc1ccc2c(c1)C(=O)CC(C)(c1cccnc1)O2 (configuration not stated),101,-42,102,92
N#CC1=C(N)Oc2nc[nH]c(=O)c2C1c1ccccc1Cl (configuration not stated),106,6,89,97
O=C(O)C(Cc1ccccc1)P(=O)(O)CN1CCOCC1 (configuration not stated),107,-14,96,88
COc1ccc(-n2ncc3c(NCCc4ccccc4)ncnc32)cc1,105,·,118,89
Cc1noc2nc(C)n(CC(=O)N3CCC(C)CC3)c(=O)c12,104,-11,·,·
CCOC(=O)C1=C(O)c2ccccc2C1=O,101,·,122,84
COc1cccc(CN2CCCN(CC(=O)Nc3ccc4c(c3)OCCO4)S2(=O)=O)c1,96,·,86,89

# Random excerpt: two compounds from above
SMILES,GIV Gai3 FP,HCMV NEC inh,Sa growth inh,Sa growth inh second temp
CC(C)CNc1cc(N2CCC(C)CC2)c2noc3c2c1C(=O)c1ccccc1-3,198,-53,·,·
CC(NC(=O)CSc1nc2c(c(=O)n1C)C1=C(CCCC1)C2)c1ccccc1 (configuration not stated),·,-15,106,98

# More entries
SMILES,GIV Gai3 FP,HCMV NEC inh,Sa growth inh,Sa growth inh second temp
Cc1cccc(C)c1Nc1cc(-c2ccccc2)ncn1,98,-8,·,·
O=C(CN1c2ccc(Br)cc2-c2ccccc2S1(=O)=O)NCc1ccccn1,102,-14,·,·
CN(C)C(=O)c1ccc2c(c1)N(CC(=O)NCCC1=CCCCC1)C(=O)CS2,118,-21,·,·
Cc1ccc2onc(CNC(=O)N3CCN(C)CC3)c2c1,105,11,111,105
NNc1nc2ccccc2o1,·,-36,95,46
COc1ccc(CNC(=O)CSc2nc3ccsc3c(=O)n2Cc2ccccc2Cl)cc1,101,-7,78,97
Cc1cc2c(cc1S(=O)(=O)N1CCCC1C(=O)NC1CCCCC1)OC(C)C(=O)N2 (configuration not stated),102,13,·,·
Cc1nn(C)c(C)c1CCNS(=O)(=O)c1ccc(F)cc1,93,-24,·,·
CC1Cc2cc(CSC(=N)N)ccc2O1 (configuration not stated),97,-51,104,84
Cc1ccccc1NC(=O)CSc1nc2nccnc2c(=O)n1CCc1c[nH]c2ccccc12,104,-16,109,72
CN(Cc1ccccc1)c1ccc(-c2nc(-c3ccccc3)no2)nn1,101,0,·,·
Cc1cc(C(=O)CSc2nnc(-c3ccco3)n2C)c(C)n1C1CC1,·,9,103,106
CC1C(=O)Nc2ccccc2N1C(=O)c1ccccc1 (configuration not stated),105,2,·,·
Brc1cnc(N2CCCC2)nc1,106,·,113,92
Cc1ccc(C(=O)Nc2ccc(C(=O)N3CCCCC3)cc2)o1,106,18,105,99
COc1ccccc1CNCc1ccccc1,·,-1,100,90
CCOC(=O)c1ccc(NC(=O)CC2C(=O)N(c3cccc(OC)c3)C(=O)N2Cc2ccc(OC)cc2)cc1 (configuration not stated),105,-10,105,71
CCc1ccc(C2Nc3ccccc3C(=O)N2c2ccc(N(C)C)cc2)cc1 (configuration not stated),·,-9,89,82
Cc1c(C(=O)N2CCCCCC2)c(S(=O)(=O)NCc2ccccc2)c(C)n1C,93,·,96,84
O=C(NNc1ccccn1)Nc1ccc(Cl)cc1,103,-8,110,95
O=C(Nn1c(=S)[nH]c2ccccc2c1=O)c1ccco1,105,-28,87,83
CCOc1ccccc1CNCc1c(C(=O)O)c(C)n(Cc2ccc(Cl)cc2)c1C,101,2,111,94
COc1cccc(N2CCN(S(=O)(=O)c3ccc4c(c3)CC(C)N4C(=O)C3CC3)CC2)c1 (configuration not stated),103,-13,·,·
COc1ccc(S(=O)(=O)N(CC(=O)NCc2ccccc2OC)c2ccc(C)cc2)cc1,106,·,118,95
CC(C)Cn1c(=S)[nH]c2scc(-c3cccs3)c2c1=O,·,-24,8.9*,7.3*
CCOc1ccc(S(=O)(=O)N(CC(=O)N2CCN(c3ccccc3)CC2)c2ccccc2)cc1,100,-17,·,·
COc1ccc(C2CC(=O)C3=C(C2)Nc2ncnn2C3c2ccc(Cl)cc2)cc1 (configuration not stated),101,-29,·,·
Cc1ccc2c(Sc3ccc(Cl)cc3)c(C(=O)NCCC(C)C)[nH]c2c1,98,-21,104,99
Cc1cc(C(=O)CSc2nncn2C)c(C)n1-c1ncn[nH]1,·,-1,97,94
CNC(=O)NC(=O)C(Sc1nnnn1C1CC1)c1ccccc1 (configuration not stated),·,18,115,106
O=C(CSc1nc(=O)n2ccccc2n1)NCc1ccccc1,101,-29,75,85
Cc1cc(C)cc(NS(=O)(=O)c2ccc3[nH]cc(C(=O)NC4CCCCC4)c(=O)c3c2)c1,106,-6,99,53
O=C(C1CC1)N1CCN(c2ncccn2)CC1,104,·,96,93
Nc1c(C(=O)NCCc2ccccc2)nnn1CC(=O)Nc1ccc(Cl)cc1,100,·,84,83
CCN(CC)CCC1S(=O)(=O)C(C(=O)OC)C(c2ccc(OC)cc2)C(C(=O)OC)S1(=O)=O (configuration not stated),104,-20,93,84
CC1(n2c(=O)n(Cc3ccccc3)c3ccccc32)CSC1,·,-9,81,53
CCc1ccc(CNC(=O)c2cccc(-n3c(C)nc4cccnc43)c2)cc1,112,·,143,100
CC(C)CNC(=O)C1CCCN1C(=O)Nc1ccccc1 (configuration not stated),101,6,100,105
COc1cccc(-c2ccc3c(N)c(C(=O)NCc4ccc(Cl)cc4)sc3n2)c1,104,-28,119,92
CC(C)C(=O)N1CCC(c2nc3ccccc3o2)CC1,103,-5,·,·

# An excerpt of these results, with each value named:
O=C(C1CC1)N1CCN(c2ncccn2)CC1
  GIV Gai3 FP: 104 | HCMV NEC inh: · | Sa growth inh: 96 | Sa growth inh second temp: 93

Nc1c(C(=O)NCCc2ccccc2)nnn1CC(=O)Nc1ccc(Cl)cc1
  GIV Gai3 FP: 100 | HCMV NEC inh: · | Sa growth inh: 84 | Sa growth inh second temp: 83

CCN(CC)CCC1S(=O)(=O)C(C(=O)OC)C(c2ccc(OC)cc2)C(C(=O)OC)S1(=O)=O (configuration not stated)
  GIV Gai3 FP: 104 | HCMV NEC inh: -20 | Sa growth inh: 93 | Sa growth inh second temp: 84

CC1(n2c(=O)n(Cc3ccccc3)c3ccccc32)CSC1
  GIV Gai3 FP: · | HCMV NEC inh: -9 | Sa growth inh: 81 | Sa growth inh second temp: 53

# (cont.)
SMILES,GIV Gai3 FP,HCMV NEC inh,Sa growth inh,Sa growth inh second temp
COCCCNC(=O)CCCn1c(SCC(=O)c2ccc(Br)cc2)nc2c(sc3ccccc32)c1=O,98,-40,108,84
Cc1cc(-c2csc(/N=C/N(C)C)n2)c(C)n1-c1ccc(F)cc1,·,-17,80,94
Cc1ccc(Nc2nc3ccccc3nc2Nc2c(C)n(C)n(-c3ccccc3)c2=O)cc1,·,-3,86,93
O=C(O)Cn1nnc(COc2ccccc2)n1,·,7,97,106
CC1N=C2c3ccccc3N=C(SCC(=O)c3ccc(O)c(O)c3)N2C1=O (configuration not stated),103,·,85,72
CNC(=O)N1CCCC(c2cccc(C(=O)N3CCC(N4CCCCC4)CC3)c2)C1 (configuration not stated),105,-16,·,·
CCc1ccc(-c2cc3n(n2)CC(C)(C(=O)NC2CCCCC2)N(CC2CCCO2)C3=O)cc1 (configuration not stated),101,-3,·,·
Cc1ccc(-c2[nH]ncc2CNCc2ccccc2)cc1C,·,-2,108,97
